Screens (PubChem)
D2 PAM – human D2 receptor positive allosteric modulation | P14416 | DiscoveRx D2 beta-arrestin cells, luminescence, 90 min; 100% = 57 uM dopamine signal | potentiation, % (test concentration not listed) | hit rate 0.23% among 360,000; active = potentiation of 50% or more; inconclusive = 30% to 50%; inactive = 30% or less;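 also: compound concentration not given in the record; tested on top of an EC20 dose of dopamine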
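PathHunter D2 cells, attached overnight at 37 deg C, received compound in DMSO plus dopamine at EC20 (50 nM final) for 90 min at 37 deg C. Beta-arrestin recruitment was read as luminescence after 1 h with detection reagent at ambient temperature.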
gsp ag – gsp mutant agonism; AID 624287; gsp mutant cells, cAMP HTRF, 30 min; control for the full effect not named in the record; hit rate 0.13% among 340,000; Potency, µM (doses to about 76.9 µM), without a hit: at the top dose activation (cAMP increase), usual class: activators; active = well fitted activation curve with a large enough effect; inconclusive = small, poorly fitted or top-dose-only effect, or another doubt; inactive = no such curve, though single readings can be large or run the other way; cell line not stated here;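 also: phosphodiesterase inhibitor Ro 20-1724 added with compounds to block cAMP breakdown; potency is read from the fitted curve at half-maximal effect; nearly all actives have a fitted effect of over 60% in size; about a fifth of the inactives were tested at one dose only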
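Cells stably selected in G418 were plated at 2000/well, grown 16-24 hr, then given compounds in DMSO with the PDE inhibitor […] (300 uM solution added) for 30 min at 37C; cAMP was read by HTRF.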
ClpP mod – qHTS Assay for Activators of ClpP. purified B. subtilis ClpP, FRET peptide cleavage, 20 min. hit rate 1.9% among 340,000. Potency, µM (top dose mostly 57.5 µM), for the others: at the top dose activity change, negative = active; active = well fitted falling curve with a large enough effect; inconclusive = small, poorly fitted or top-dose-only effect; inactive = no such curve, though single readings can be large or run the other way; also: potency is read from the fitted curve at half-maximal effect; the source files actives as falling curves though it sought activators and does not explain the sign; nearly all actives have a fitted effect of over 65% in size; many hits overshoot -100%
Target sequence (P80244 whole entry, looked up): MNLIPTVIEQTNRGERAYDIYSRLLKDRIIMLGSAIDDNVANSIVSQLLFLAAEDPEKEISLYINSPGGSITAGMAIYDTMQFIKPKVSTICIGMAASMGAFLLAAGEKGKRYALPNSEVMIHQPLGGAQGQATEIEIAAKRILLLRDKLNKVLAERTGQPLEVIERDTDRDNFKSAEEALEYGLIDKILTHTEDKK
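ClpP 10 microg/mL final, pH 8 Tris/KCl buffer with BSA, glycerol, Tween-20; compound pinned in; FRET-FV substrate; RT 20 min; Ex320/Em430; ΔFRET vs ADEP 5.8 microM, DMSO, no enzyme.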
Sfp inh – inhibitors of Bacillus subtilis Sfp phosphopantetheinyl transferase | Q9F4F7 | Biochemical Sfp PPTase activity, qHTS | Potency, µM, inactives show max response, negative = inhibition, actives largely listed as inhibitors | hit rate 3.5% among 310,000 | AID 1490; active = well fitted inhibition curve with a large enough effect; inconclusive = small, poorly fitted or top-dose-only effect, or another doubt; inactive = no such curve, though single readings can be large or run the other way;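 also: the enzyme is Sfp with the accession as filed and its product quenches rhodamine fluorescence; potency is read from the fitted curve at half-maximal effect; 0% = enzyme reaction without inhibitor and -100% = no enzyme wells; top concentration of the series not given in the record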
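After 15 min at room temperature with compound, 15 nM Sfp received 5 uM rhodamine-CoA plus 12.5 uM BHQ-2-ybbR (50 mM Hepes pH 7.6, 10 mM MgCl2). Rate came from the fluorescence difference over 30 min, ex 525/em 598 nm.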
gsp antagonist – antagonizes gsp, the McCune-Albright syndrome mutation | hit rate 0.4% among 340,000 | AID 624288 | Potency, µM (series often up to 76.9 µM), inactives show at the highest dose activity change, negative = inhibition, hits mostly inhibitors | gsp-mutant cells, cAMP HTRF, 30 min; control for the full effect not named in the record; active = falling curve of any shape with a large fitted effect; inconclusive = falling curve, mostly with a smaller effect; inactive = flat or rising curve; cell line not stated here;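 also: intracellular cAMP measured with PDE inhibitor Ro 20-1724 present during compound exposure; potency is read from the fitted curve at half-maximal effect; % is scaled to controls: 0 for no effect and ±100 for the full control effect; nearly all actives have a fitted effect of over 65% in size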
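Cells, 2000/well, grown 16–24 h in DMEM 10% FBS with 0.5 mg/ml G418, then compounds plus […] (300 uM addition stock), 30 min at 37C. cAMP read by HTRF (cAMP-d2 and anti-cAMP antibody-K in lysis buffer) after 30 min RT.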
TRPV1 potentiator – human TRPV1 potentiation. Q8NER1. TRPV1-expressing cells, Fluo-8 calcium influx, capsaicin EC20 potentiation; host cell line not named in the record; control for the full effect not named in the record. potentiation, % at 8.33 µM. hit rate 0.02% among 320,000; active means potentiation above 80%; inconclusive means 30% to 80%; inactive means below 30%; also: 0% is about no effect
Target sequence (Q8NER1 whole entry, looked up): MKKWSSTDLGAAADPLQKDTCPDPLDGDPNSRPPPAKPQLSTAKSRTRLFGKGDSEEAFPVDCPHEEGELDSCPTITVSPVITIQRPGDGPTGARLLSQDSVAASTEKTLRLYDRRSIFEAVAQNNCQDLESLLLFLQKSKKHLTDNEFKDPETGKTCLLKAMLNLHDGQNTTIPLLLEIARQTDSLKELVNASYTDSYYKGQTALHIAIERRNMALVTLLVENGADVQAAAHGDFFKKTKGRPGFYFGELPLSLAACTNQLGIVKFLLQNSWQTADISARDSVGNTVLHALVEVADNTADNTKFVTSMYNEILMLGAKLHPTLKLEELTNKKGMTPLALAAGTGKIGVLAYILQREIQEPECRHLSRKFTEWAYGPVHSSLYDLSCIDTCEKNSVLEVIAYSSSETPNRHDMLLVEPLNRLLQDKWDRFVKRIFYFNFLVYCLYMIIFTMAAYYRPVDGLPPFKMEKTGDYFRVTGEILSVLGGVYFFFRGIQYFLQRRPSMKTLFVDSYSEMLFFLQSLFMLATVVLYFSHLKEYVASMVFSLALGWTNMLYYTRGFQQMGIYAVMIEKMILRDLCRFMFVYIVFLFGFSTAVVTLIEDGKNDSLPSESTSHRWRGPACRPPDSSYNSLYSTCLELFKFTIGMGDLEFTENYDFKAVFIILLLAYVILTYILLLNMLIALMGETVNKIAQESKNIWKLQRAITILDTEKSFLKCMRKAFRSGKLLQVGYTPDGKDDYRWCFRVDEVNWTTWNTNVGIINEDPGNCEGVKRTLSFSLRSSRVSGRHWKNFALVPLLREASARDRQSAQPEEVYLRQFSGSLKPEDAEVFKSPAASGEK
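Cells expressing TRPV1 were dye-loaded with Fluo-8 and read kinetically: 10 s baseline, 3 min after compound (agonist portion), then 2 min after EC20 capsaicin (allosteric enhancer portion). Calcium-bound dye fluorescence at 480/520 nm.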
Menin-MLL FL inh – inhibitors of human menin-MLL interaction, wild-type MLL peptide. Fluorescence polarization, fluorescein-MLL peptide displacement from menin. FP activity change, % at 61.4 µM. AID 1766. 290,000 tested, under 10 active; inconclusive = falling polarisation curve, or a change in total fluorescence; inactive = total fluorescence flat and polarisation flat or rising; no compound was filed as active; the % refers to the polarisation; negative = inhibition;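 also: % of control where 0% means no effect; inhibitors lower the polarisation; unlabelled MLL peptide was the positive control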
An asterisk follows results filed as active; ? = inconclusive; . = no result given; & = joins results of further samples; [ ] = remark or other dose. Rows are unselected; any-hit rate near 5.1%.

Sequence of screens – D2 PAM | gsp ag | ClpP mod | Sfp inh | gsp antagonist | TRPV1 potentiator | Menin-MLL FL inh
COC(=O)c1ccc(N2CCN(S(=O)(=O)c3ccc4ccccc4c3)CC2)c([N+](=O)[O-])c1
 : 14.5 | -0.9% | -1.7% | 0.8% | ? | -11.6 | 4.5
Cc1cc(N2CCC(C)CC2)n2nc(C)c(-c3ccccc3)c2n1
 : 21.3 | -38.5%[inhibitor] | -17.6% | 10.8% | 4.2% | 11.3 | 1.7
O=C(Nc1cccc(-c2cscn2)c1)C1CCN(Cc2ccc(CO)o2)CC1
 : -17.8 | ? | 0.9% | 3.8% | -6.9% | 8.0 | .
Cc1cc(Nc2ccc(Cl)cc2)nc(N2CCOCC2)n1
 : -4.6 | -7.3%[15.4 µM] | . | 10.8% | -0.1% | 4.4 | 4.5
O=C(c1ccc(F)cc1)N1CCCN(c2nc(-c3ccccc3)ns2)CC1
 : 3.4 | 2.2% | -0.7% | 3.8% | -1.4% | 12.4 | 8.1
N#CCSc1nc2cc(C(=O)N3CCCC3)ccc2c(=O)n1Cc1ccccc1
 : -1.6 | -24.7% | -3.2% | -4.0% | ? | -7.3 | 0.2
c1csc(Cc2nn3c(-c4n[nH]c5c4CCC5)nnc3s2)c1
 : -6.5 | 0.2% | -1.9% | -14.3% | 2.0% | -19.6 | 5.6
CC1CCN(Cc2c(O)ccc3c2O/C(=C\c2ccco2)C3=O)CC1
 : -8.6 | -20.5%[15.4 µM] | -11.2% | ? | -35.7% | -5.9 | ?
CNC(=O)c1[nH]nc2c1CCc1cc(OC)ccc1-2
 : -2.1 | -7.9% | . | 8.2% | -2.5% | -4.3 | -4.6
Cc1ccccc1Nc1nc(N)nc(CSc2nc3ccccc3c(=O)n2CCCO)n1
 : -5.3 | -1.9% | -0.2% | -9.4% | 10.7% | 12.5 | 3.9
Cc1ccc(Cl)cc1NC(=O)CCC(=O)NCc1ccco1
 : -25.9 | 42.3%[15.4 µM] | -1.6% | 6.9% | -1.5% | 4.0 | -0.1
CCOc1cc(C(=O)Nc2cc(C(=O)OC)ccc2C)ccc1OCC(=O)N1CCOCC1
 : -10.9 | -15.1% | 2.9% | . | 4.9% | 9.0 | .
Cc1ccccc1Nc1nc(N)nc(COC(=O)c2cccc(S(=O)(=O)N(C)c3ccccc3)c2)n1
 : -4.5 | -10.2% | 3.5% | 14.9% | -9.4% | 0.9 | .
CCn1c(C)cc(O)cc1=O
 : 2.8 | 6.5%[15.4 µM] | -1.8% | 16.7% | -9.9% | -12.6 | 2.5
Cc1nc(NC(=O)c2ccccc2)sc1-c1csc(Nc2ccc(F)cc2)n1
 : . | . | . | -6.7% | . | 21.9 | 1.0
CC(=O)c1cccc(NC(=O)c2cc3nc(C)cc(C)n3n2)c1
 : 8.5 | ? | ? | 25.5% | -1.4% | -0.9 | 4.0
Cc1cccc(N2CCN(C(=O)c3cc4cc(F)ccc4[nH]3)CC2)c1C
 : -7.9 | -2.7%[15.4 µM] | -0.1% | 5.0% | 2.7% | -3.8 | -7.8
COc1cc(/C=N/NC(=O)C2(O)c3ccccc3-c3ccccc32)ccc1O
 : -9.2 | -5.4%[15.4 µM] | -17.4% | 3.0% | 5.4% | 11.5 | -1.6
COc1ccc(Cl)cc1N1C(=O)c2cccnc2C1=O
 : 1.8 | -45.8%[inhibitor] | 1.2% | 5.1% | 3.2% | 7.8 | 1.4
Cc1c(Cl)c([N+](=O)[O-])nn1CC(=O)N1CCc2ccccc2C1
 : -20.0 | 5.6% | -1.9% | -6.7% | -1.0% | . | 6.8
CSc1ccc(C(=O)C2CCCN(C(=O)c3ccc(C)nc3)C2)cc1 (stereo unspecified)
 : -12.8 | 10.9% | -5.4% | 2.5% | -5.8% | 4.4 | -0.9
COc1ccc(NS(=O)(=O)c2cc3c(cc2C)NC(=O)CO3)c(OC)c1
 : 12.6 | -0.5% | 0.4%&0.6% | 4.5% | -0.3% | ? | 0.4
Cc1ccc(/C=C2\SC(=S)N(CCC(=O)NNC(=O)c3cccc(O)c3)C2=O)cc1
 : -6.9 | -24.4% | 1.5% | 10.4% | -13.2% | -5.2 | .
O=C(NCC1CCCN1S(=O)(=O)c1cccs1)C(=O)Nc1ccccc1 (stereo unspecified)
 : 1.2 | -7.3% | -2.5% | . | 5.2% | ? | .
COc1ccc(CN(C)C2CCN(C)CC2)cc1OC
 : -11.5 | -28.9% | -2.1% | 5.7% | 4.4% | -19.1 | 2.5
O=C(COc1ccc(F)cc1)NCCN1CCCC1
 : -12.0 | 0.3%[15.4 µM] | -1.2% | 5.3% | 6.4% | 0.2 | -6.0
CCCCCCC(=O)N1CCC(c2nc3c(nnn3Cc3ccccc3Cl)c(=O)[nH]2)CC1
 : -11.4 | 2.8% | -2.7% | ? | -5.7% | 17.3 | 3.6
Cc1sc2ncnc(N3CCC(C(=O)Nc4ccc(OC(F)F)c(Cl)c4)CC3)c2c1C
 : -23.4 | -34.7% | -6.9% | . | 28.2µM* | . | .
O=C(CSCCO)N1CCc2ccccc21
 : -4.3 | -2.7% | -0.1% | 12.1% | 17.0% | -1.7 | -1.8
CCCc1cc(SCC(=O)Nc2c(C)n(C)n(-c3ccccc3)c2=O)n2c(nc3ccccc32)c1C#N
 : -9.1 | ? | 1.9% | ? | 18.1% | -1.0 | ?

Gathered by group, the compounds so far containing a furan ring, fused or not (3)
Sequence of screens – D2 PAM | gsp ag | ClpP mod | Sfp inh | gsp antagonist | TRPV1 potentiator | Menin-MLL FL inh
O=C(Nc1cccc(-c2cscn2)c1)C1CCN(Cc2ccc(CO)o2)CC1
 : -17.8 | ? | 0.9% | 3.8% | -6.9% | 8.0 | .
CC1CCN(Cc2c(O)ccc3c2O/C(=C\c2ccco2)C3=O)CC1
 : -8.6 | -20.5%[15.4 µM] | -11.2% | ? | -35.7% | -5.9 | ?
Cc1ccc(Cl)cc1NC(=O)CCC(=O)NCc1ccco1
 : -25.9 | 42.3%[15.4 µM] | -1.6% | 6.9% | -1.5% | 4.0 | -0.1

The listing continues.
Sequence of screens – D2 PAM | gsp ag | ClpP mod | Sfp inh | gsp antagonist | TRPV1 potentiator | Menin-MLL FL inh
O=C(CN1CCCCCC1)Nc1ccc(Br)cn1
 : -2.6 | -23.2% | -3.2% | -3.8% | 15.9% | -1.3 | -5.8
COc1ccccc1OCCC(=O)OCC(=O)Nc1ncc(Cl)cc1Cl
 : -4.2 | 9.4% | -8.7% | 0.3% | -3.8%[15.4 µM] | -9.3 | 1.6
c1ccc(-n2nnnc2Oc2ccc(-c3nnco3)cc2)cc1
 : -1.5 | 9.6% | -1.3% | -5.1% | 4.0% | 28.5 | 0.7
Cc1ccccc1C(=O)NC(=S)NCC1CCCO1 (stereo unspecified)
 : -23.9 | 4.4% | 0.9% | 10.1% | -1.9% | 10.3 | 6.6
CC(OC(=O)CCc1nc2ccccc2c(=O)[nH]1)C(=O)Nc1ccc2c(c1)OCO2 (stereo unspecified)
 : -11.3 | 18.3% | -0.4% | 9.6% | -2.1% | 5.6 | -0.7
O=C(Nc1nnc(SCC(=O)N2CCCc3ccccc32)s1)c1ccccc1
 : -6.2 | 3.8% | -2.2% | 22.7% | 2.0% | 2.4 | -0.8
COC(=O)[C@H]1C[C@@H]1[C@H](NC(=O)c1cnccn1)c1ccccc1
 : -1.1 | . | 1.2% | 10.1%&27.6% | -5.1% | -10.9 | 3.5&-0.1
CCN(CC)C(=O)/C(=C/c1cn(S(=O)(=O)N(C)C)c2ccccc12)NC(=O)c1ccc(OC)cc1
 : -12.2 | -0.4%[15.4 µM] | . | 7.5% | . | 1.8 | -0.2
Cc1noc(C)c1COc1ccc(C(=O)OCC(=O)Nc2ccc(S(N)(=O)=O)cc2)cc1
 : 5.8 | -1.2% | 0.1% | . | 3.3% | 3.8 | .
COc1cc2nc(Cl)nc(N3CCN(C)CC3)c2cc1OC
 : . | . | . | 13.7% | . | 15.7 | 1.4
CCCCN1C(=O)C(CC(=O)NCc2ccco2)CC(C(=O)N2CCOCC2)=C1C (stereo unspecified)
 : 3.6 | -0.9% | 1.4% | . | . | . | .
COC(=O)c1ccc(COc2ccc(/C=C/C(=O)c3ccc(OC)c(CSCC(=O)O)c3)cc2OC)cc1
 : -17.4 | ? | -9.7% | -20.4% | 39.8µM* | 26.2 | .
COCC(=O)N1CCN(c2cccc(C(F)(F)F)c2)CC1
 : -22.0 | -10.2% | -0.4% | 9.5% | 10.3% | -5.1 | 1.8
CCOc1ccc(CCNC(=O)COC(=O)/C=C/c2ccccc2)cc1OCC
 : -1.5 | -2.4% | -22.7% | . | 9.7% | 7.3 | .
O=S(=O)(NCCOCC(F)(F)F)c1ccc2oc3ccccc3c2c1
 : -4.5 | 0.0% | 1.5% | 5.8% | ? | 5.6 | 1.0
C=CCn1c(COc2ccc(F)cc2)nnc1SCC(=O)c1c[nH]c2c(CC)cccc12
 : -10.9 | 20.5% | -2.0% | 0.2% | -0.3% | ? | 0.5
O=S(=O)(c1ccccc1)N1CCC(c2ccccc2)CC1
 : -5.5 | . | 1.5% | . | 5.3% | -6.2 | .
Cc1ccc(S(=O)(=O)N(C)C)cc1NC(=O)COc1ccccc1C(=O)Nc1ccccc1
 : -30.3 | 8.3% | 1.1% | . | ? | 14.4 | .
CCCC(=O)NC(NC1CCS(=O)(=O)C1)C(Cl)(Cl)Cl (stereo unspecified)
 : -4.3 | 8.3%[15.4 µM] | . | 1.2% | 9.0% | -14.3 | 2.4
COc1cc2c(cc1OC)C(COc1ccc([N+](=O)[O-])cc1)N(C(C)=O)CC2 (stereo unspecified)
 : -0.7 | 4.7% | 0.9% | -2.7% | -4.9% | 17.4 | -2.3
O=S(=O)(/N=C(\Nc1ccc(F)cc1)C(F)(F)F)c1ccccc1
 : -23.4 | 4.3% | -2.3% | -8.1% | 7.9% | -1.5 | 3.2
Cc1ccc(C(=O)Nc2ccc3ccccc3c2)cc1
 : -7.2 | 10.2% | . | 7.8% | 2.1% | -7.2 | -3.7
Cc1cccc(C(=O)NCC(c2cccs2)N2CCOCC2)c1 (stereo unspecified)
 : -16.9 | -14.1%[15.4 µM] | -0.8% | . | 2.8% | 25.5 | .
